GIRK2 act – activators of human GIRK2 potassium channels | G protein-activated inward rectifier potassium channel 2 (Homo sapiens), P48051 | HEK293-GIRK2 thallium flux, Thallos fluorescence | calls only for hits at 25 µM | 63,000 compounds, 0.05% hits | AID 1259325, 2017;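 active = among the strongest 0.2% of first-round signals and kept after retests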;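 note: first round at about 10 µM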
Target sequence (P48051 whole entry, looked up): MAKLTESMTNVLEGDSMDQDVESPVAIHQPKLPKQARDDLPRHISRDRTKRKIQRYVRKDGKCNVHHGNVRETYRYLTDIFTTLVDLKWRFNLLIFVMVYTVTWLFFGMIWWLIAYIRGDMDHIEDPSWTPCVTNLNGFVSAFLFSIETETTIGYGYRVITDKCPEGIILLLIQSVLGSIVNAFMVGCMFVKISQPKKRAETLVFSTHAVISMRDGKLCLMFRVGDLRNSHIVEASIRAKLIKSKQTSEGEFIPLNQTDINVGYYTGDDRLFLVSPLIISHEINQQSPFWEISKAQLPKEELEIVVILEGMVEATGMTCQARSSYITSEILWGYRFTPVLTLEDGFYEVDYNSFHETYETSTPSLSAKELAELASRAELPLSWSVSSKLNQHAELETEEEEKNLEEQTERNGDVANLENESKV
Calls only; i = inactive. These rows are one share of the data; rates above refer to the full screens.

SMILES | GIRK2 act
O=C(C1CC=CCC1)N(CCc1ccccc1)Cc1ccccn1 (stereo not given) | i
CCOCN(C(=O)Cn1c(COC)nc2ccccc21)c1c(C)cccc1CC | i
CCCCOC(=O)c1ccc(NC(=O)c2nnn(-c3ccc(OC)cc3)n2)cc1 | i
COc1cc(CSc2ncc(CO)n2Cc2ccc(F)cc2)cc(OC)c1 | i
CS(=O)(=O)Nc1cccc(NC(=O)Cn2nc(-n3cccn3)ccc2=O)c1 | i
CCCCOc1ccc(C(=O)N2CCN(c3ncnc4c3nnn4-c3ccc(Cl)cc3)CC2)cc1 | i
CON(C)C(=O)c1nnn(-c2ccc(F)cc2)n1 | i
CCc1ccc(Nc2nn3c(=O)c4ccc(C(=O)OC)cc4nc3s2)cc1 | i
COc1ccc(-c2coc3c4c(ccc3c2=O)OCN(CCN2CCOCC2)C4)cc1OC | i
O=C(NCc1ccc2c(c1)OCO2)C1COCC(=O)N1Cc1cccs1 (stereo not given) | i
COc1cccc(-c2csc(/C(C#N)=C/Nc3ccc(OC)c(OC)c3)n2)c1 | i
CN1CCN(C(CNC(=O)c2ccc(Br)o2)c2cccn2C)CC1 (stereo not given) | i
CCOc1coc(C(=O)NC2CCCC2)cc1=O | i
CCOc1ccc(N2CCN(CC(=O)Nc3ccc(Cl)c(Cl)c3)C2=O)cc1 | i
Nc1c(-c2ccccn2)nsc1C(=O)NCc1cccc(Br)c1 | i
Nc1nc2c(ncn2CCC(CO)CO)c(=O)[nH]1 | i
O=c1[nH]c(SCc2cccc(C(F)(F)F)c2)nc2c1CN(Cc1ccc(F)cc1)CC2 | i
Cc1ccc(S(=O)(=O)N2CCCc3ccc(NS(=O)(=O)c4ccc(F)cc4)cc32)cc1 | i
Cc1cc(C)c(NC(=O)CSC2=NNC3C4CC(c5ccc(F)cc5)NN4C=CN23)c(C)c1 (stereo not given) | i
COc1ccc(NC(=O)Cn2cnc3c(-c4ccc(Cl)cc4)csc3c2=O)c(OC)c1 | i
Cc1ccc(S(=O)(=O)Nc2ccc(C(=O)NCCC(C)C)cc2)cc1 | i
Cc1ccc(NC(=O)C2CCCCC2C(=O)O)cc1 (stereo not given) | i
CN(Cc1ccccc1)S(=O)(=O)c1[nH]ncc1C(=O)O | i
CCOc1ccc2c(c1)c(=O)c(S(=O)(=O)c1ccc(C)cc1)cn2Cc1cccc(OC)c1 | i
COc1cccc2sc(N(CCCn3ccnc3)C(=O)Cc3ccc(F)cc3)nc12 | i
Cc1noc(CNC(=O)C2(c3ccccc3)CCOCC2)n1 | i
COc1ccc(C(=O)CSc2nnc(C)c3cnn(-c4ccc(C)cc4)c23)cc1 | i
CCc1ccc(N(Cc2ccccc2)S(=O)(=O)c2cccn3c(CC)nnc23)cc1 | i
O=C(Cn1cccc(S(=O)(=O)N2CCCC2)c1=O)Nc1ccccc1C(F)(F)F | i
CCOC(=O)N1CCN(CCn2c(C)cn3c4c(=O)[nH]c(=O)n(C)c4nc23)CC1 | i
O=C(Cn1cnc2ccccc2c1=O)NCCn1nc(-c2cccnc2)ccc1=O | i
Cc1ccc(NC(=O)C(=O)NCCc2ccc(Cl)cc2)cc1F | i
COc1cccc(NC(=O)CCCOc2ccc(C(C)(C)C)cc2)c1 | i
O=C1CCc2cc(S(=O)(=O)N3CCCC3)cc3c2N1CC3 | i
COc1ccc(C2C(C(N)=O)=C(C)N=C3SCC(=O)N32)cc1 (stereo not given) | i
O=S(=O)(c1cccc(F)c1)N1CCCCCC1 | i
COc1ccc(OC)c(NC(=O)Cn2c(C)cc(C)c(-c3nc(-c4ccccc4)no3)c2=O)c1 | i
CCOc1ccc(OCC)c(NC(=O)c2nnn(Cc3cc(Br)ccc3OC)c2N)c1 | i
O=C(Cn1nc2c(N3CCOCC3)nccn2c1=O)Nc1cc(C(F)(F)F)ccc1Cl | i
Cc1cc2ncn(CC3CCN(C(=O)COc4ccc(F)cc4)CC3)c2cc1C | i
CCCCS(=O)(=O)N1CCCC(c2nnc(-c3ccc(OC)cc3)s2)C1 (stereo not given) | i
COc1cccc2[nH]c(C(=O)O)cc12 | i
Cc1nc(SCc2nc(-c3ccc(F)c(Cl)c3)no2)[nH]c(=O)c1Cc1ccccc1 | i
COc1ccc(-c2noc(C3CC(=O)N(c4ccc(C(C)C)cc4)C3)n2)cc1OC (stereo not given) | i
O=C(NCCOc1ccccc1)NCC1(c2ccc(F)cc2)CC1 | i
O=C(/C=C/c1ccccc1)NCC1CCN(C(=O)c2ccoc2)CC1 | i
COc1ccc(CNC(=O)c2nnn(-c3ccc(Cl)cc3)c2-c2cccnc2)cc1OC | i
Cc1noc(C2CCCN2C(=O)C(C)(C)Oc2ccc(Cl)cc2)n1 (stereo not given) | i
COC(=O)c1c(NCc2ccc(OC)c(OC)c2)c2cccc(Cl)c2[nH]c1=O | i
N#C/C(C(=O)Nc1ccccc1Cl)=C1/SC(Cc2ccc(F)cc2)C(=O)N1c1ccccc1 (stereo not given) | i
(listing goes on)
SMILES | GIRK2 act
COCCNC(=O)c1ccc(S(=O)(=O)NCc2cccs2)o1 | i
COc1ccc(OC)c(/C=C2\Oc3c(ccc4c3CN(CCN3CCOCC3)CO4)C2=O)c1 | i
COc1ccc(C)cc1S(=O)(=O)NCC1CCN(C2CCCC2)CC1 | i
Cc1cc(C)n(-c2cc(SCC(=O)NCc3ccc(F)cc3)ncn2)n1 | i
CCc1ccc(S(=O)(=O)N2CC(c3nc(-c4ccncc4)no3)C2)s1 | i
FC(F)(F)c1nnc(C2CCN(Cc3csc(-c4ccccc4)n3)CC2)o1 | i
O=C(c1cccc(-n2cnnn2)c1)N1CCC(c2nnc(C3CC3)o2)CC1 | i
O=C(COc1ccccc1)Nc1ccc(S(=O)(=O)N2CCOCC2)cc1 | i
O=C(NCCc1ccccc1)NC1CC(=O)N(C2CC2)C1 (stereo not given) | i
CC(=O)c1cccc(S(=O)(=O)N2CC(Oc3nc4ccccc4s3)C2)c1 | i
Cc1cc(=O)n2c(-c3cccc(NC(=O)C4CC4)c3)csc2n1 | i
COc1ccc(-c2noc(-c3ccc(SCC(=O)N4CCSCC4)nc3)n2)cc1 | i
Cc1cc(C)n(-c2ncc(NC(=O)Nc3ccccc3Cl)cn2)n1 | i
Cc1oncc1C(=O)N1CCC2(CC1)OCCS2 | i
Cc1ccc(-n2ncc3c(=O)n(CC(=O)N4CCc5ccccc54)cnc32)c(C)c1 | i
Cc1nn(C)c(C)c1CCC(=O)Nc1cccc2nsnc12 | i
CC(C)S(=O)(=O)c1ccc(C(=O)Nc2ccc(Cl)c3ncsc23)cc1 | i
O=C(Cc1ccc(NC(=O)c2ccc3nsnc3c2)cc1)NCc1cccs1 | i
COC(=O)c1ccc2c(=O)n(-c3ccc(C)c(F)c3)c(N3CCCCC3)nc2c1 | i
O=C(c1cc2c(=O)n3ccccc3nc2n1Cc1ccccc1)N1CCOCC1 | i
Cc1ccc(NC(=O)Cn2cnc3c(sc4ccccc43)c2=O)cc1Cl | i
COc1cccc2sc(N(C)CC(=O)NCC(F)(F)F)nc12 | i
CC(C)c1cc(=O)[nH]c(-n2nc(C3CC3)cc2NC(=O)C2COc3ccccc3O2)n1 (stereo not given) | i
CCCCOc1ccccc1-c1cc2c(=O)n(Cc3nc(-c4ccc(C)c(C)c4)no3)ccn2n1 | i
COc1ccc(S(=O)(=O)NCCCC(=O)O)cc1N(C)S(=O)(=O)c1ccccc1 | i
O=C1OC(C(=O)NC2CCCCC2)Cc2ccccc21 (stereo not given) | i
O=C(Nc1ccc(S(=O)(=O)N2CCN(c3cnccn3)CC2)cc1)c1ccco1 | i
O=C(Cn1c(=O)oc2ccccc21)N1CCN(Cc2ccsc2)CC1 | i
O=C(CCc1ccccc1)N1CCN(CC(O)c2cccs2)CC1 (stereo not given) | i
Cc1cn2c3c(=O)n(C/C=C/c4ccccc4)c(=O)n(C)c3nc2n1CCO | i
Cc1ccc(N2CCN(C(=O)CCn3cnc4c([nH]c5ccccc54)c3=O)CC2)c(C)c1 | i
Cn1ccnc1SCC1CCN(C(=O)c2cccs2)CC1 | i
COc1ccc(NC(=O)c2c(O)c3c(C)c(C(=O)N(C)C)sc3[nH]c2=O)cc1Cl | i
CCc1nnc(NC(=O)c2nnn(-c3cc(Cl)ccc3C)c2C)s1 | i
Nc1c(-c2nc(-c3ccccc3)cs2)nnn1-c1ccc(Cl)cc1 | i
Cc1ccccc1NS(=O)(=O)c1ccc2oc(=O)ccc2c1 | i
CCOc1cc(C(=O)Nc2ccc3c(c2)CCC(=O)N3CCC(C)C)cc(OCC)c1OCC | i
O=C(CN1CCC(c2nc3ccccc3[nH]2)CC1)Nc1cccc(C(F)(F)F)c1 | i
Cc1cc(NC(=O)Cn2c(=O)oc3ccccc32)n(-c2nc3c(F)cccc3s2)n1 | i
Cc1ccc(NC(=O)CSc2nccc(-c3ccc(C)c(C)c3)n2)cc1 | i
COc1ccc(OC(C)C(=O)Nc2cccc(Br)c2)cc1 (stereo not given) | i
Cc1cc(C)n(CC(=O)NCc2ccc(F)cc2)c(=O)c1C#N | i
COc1cc(-c2cc(C(=O)N3CC(c4nc(-c5cccc(Cl)c5)no4)C3)[nH]n2)cc(OC)c1OC | i
CC(C)n1cnc2c(NCc3ccccc3)nc(NCCO)nc21 | i
COc1cccc(-n2c(=O)c3sccc3n(Cc3nc(-c4ccccc4OC)no3)c2=O)c1 | i
Cc1nc(-c2ccc(N3CCN(C(=O)Cc4c(C)noc4C)CC3)nc2)no1 | i
Cc1cc(C)c(NC(=O)CN2C(=O)NC(c3cccc(Cl)c3)C3=C2COC3=O)c(C)c1 (stereo not given) | i
O=C(NCCc1ccccn1)C1CCCN(c2nc3c(-c4ccccc4)csc3c(=O)[nH]2)C1 (stereo not given) | i
Cc1cc(C(O)CCNC(=O)C(=O)Nc2cccc(N3CCCC3=O)c2)c(C)o1 (stereo not given) | i
CN(C)C(CNC(=O)Nc1cccs1)c1ccc2c(c1)CCO2 (stereo not given) | i
The list goes on.
SMILES | GIRK2 act
O=C(CCn1ccc(=O)[nH]c1=O)Nc1nc2c(s1)COCC2 | i
C=CCCC(=O)N(CCC)Cc1ccsc1 | i
Cn1/c(=N/NC(=O)c2ccncc2)sc2ccccc21 | i
CCCCc1ccc(N2C(=NC(=O)CCCC(=O)O)SC3CS(=O)(=O)CC32)cc1 (stereo not given) | i
Cc1ccc(S(=O)(=O)N2CCCCC2CCNC(=O)Nc2ccc3c(c2)OCO3)cc1 (stereo not given) | i
CCCCOC(=O)c1ccc(NC(=O)c2cc3cccnc3n(CC)c2=O)cc1 | i
O=C1CCSCC(C(=O)Nc2ccc3c(c2)Cc2ccccc2-3)N1 (stereo not given) | i
CCOc1ccc(Cl)cc1S(=O)(=O)NCc1ccccn1 | i
Cc1cc(C)c(NC(=O)CSc2nccn2-c2cccc(C(=O)NCc3cccs3)c2)c(C)c1 | i
COCCn1c(=O)c2c(nc(-n3nc(C)cc3C)n2Cc2ccc(F)cc2)n(C)c1=O | i
Cc1cc(NC(=O)C(=O)NCC2CCN(C(=O)Nc3ccc(F)cc3)CC2)ccc1N1CCCC1=O | i
CC(=O)CC1(O)C(=O)N(CCCOc2ccc3ccccc3c2)c2ccccc21 (stereo not given) | i
CCOC(=O)c1cccc(N2C=C(C#N)S(=O)(=O)c3ccc(F)cc32)c1 | i
O=C(CSc1cc(-c2ccccc2)ncn1)Nc1ccccc1C(F)(F)F | i
O=C(Cn1cc(-c2nc(-c3ccc(Cl)cc3)no2)ccc1=O)Nc1ccc2c(c1)OCO2 | i
COCCN1CCC(NC(=O)c2cnn(-c3ccccc3)n2)CC1 | i
O=C(NCCc1cccs1)c1cc2ccccc2c(=O)s1 | i
O=C(NCc1ccccc1)N1CC(c2nc(-c3ccc[nH]c3=O)no2)C1 | i
CN(C)c1ccc2[nH]c(O)c(C=Nc3ccc(S(N)(=O)=O)cc3)c2c1 | i
Cn1cnnc1SCc1cc(=O)c(OCC(=O)c2ccc(Cl)cc2)co1 | i
O=C(NCCCN1CCN(c2ccccc2)CC1)C(=O)NCc1ccc2c(c1)OCO2 | i
COc1cccc(C(=O)NC2CCN(c3nccs3)CC2)c1OC | i
CC(C)(C)CC(=O)N1CCN(CCn2ccnc2)CC1 | i
O=C(NCC#CCN1CCCC1)c1ccc(OC(F)(F)F)cc1 | i
Cc1cc(NC(=O)COc2ccc3ccccc3c2)n(-c2nc3c(cnn3-c3ccccc3)c(=O)[nH]2)n1 | i
O=C(CN1C(=O)CCC1=O)N1CCN(Cc2ccsc2)CC1 | i
CC(C)Oc1ccc(C(=O)Nc2cccc(-c3ccn[nH]3)c2)cc1 | i
O=C(CN1CC(c2nc(-c3cccs3)no2)C1)Nc1cc(C(F)(F)F)ccc1Cl | i
COc1ccc(-n2nnc(C(=O)N3CCN(c4cccc(C(F)(F)F)c4)CC3)n2)cc1 | i

Entries from the list above containing two or more sulfur atoms:
SMILES | GIRK2 act
Cc1ccc(S(=O)(=O)N2CCCc3ccc(NS(=O)(=O)c4ccc(F)cc4)cc32)cc1 | i
CCCCS(=O)(=O)N1CCCC(c2nnc(-c3ccc(OC)cc3)s2)C1 (stereo not given) | i
COCCNC(=O)c1ccc(S(=O)(=O)NCc2cccs2)o1 | i
CCc1ccc(S(=O)(=O)N2CC(c3nc(-c4ccncc4)no3)C2)s1 | i
CC(=O)c1cccc(S(=O)(=O)N2CC(Oc3nc4ccccc4s3)C2)c1 | i
COc1ccc(-c2noc(-c3ccc(SCC(=O)N4CCSCC4)nc3)n2)cc1 | i
CC(C)S(=O)(=O)c1ccc(C(=O)Nc2ccc(Cl)c3ncsc23)cc1 | i
O=C(Cc1ccc(NC(=O)c2ccc3nsnc3c2)cc1)NCc1cccs1 | i
COc1ccc(S(=O)(=O)NCCCC(=O)O)cc1N(C)S(=O)(=O)c1ccccc1 | i
Cn1ccnc1SCC1CCN(C(=O)c2cccs2)CC1 | i
CCCCc1ccc(N2C(=NC(=O)CCCC(=O)O)SC3CS(=O)(=O)CC32)cc1 (stereo not given) | i
Cc1cc(C)c(NC(=O)CSc2nccn2-c2cccc(C(=O)NCc3cccs3)c2)c(C)c1 | i
O=C(NCCc1cccs1)c1cc2ccccc2c(=O)s1 | i

Source: PubChem
